Screening data deposited in PubChem by several laboratories.
Mtb growth = M. tuberculosis H37Rv growth inhibitors, H37Rv strain (AID 1626); inhibition, % at 10 µM, or IC50 in µM where a hit was titrated; 220,000 compounds, 0.95% hits; M. tuberculosis H37Rv growth inhibition; higher % means a stronger effect;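 active means confirmed in a dose series; inconclusive means inhibition above 80% but not taken into the dose series; inactive means below 80% or under 30% at every dose of the series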;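 further: bacteria incubated seven days before Alamar blue readout; 0% = bacteria only wells and 100% = bacteria with antibiotic wells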
Arbovirus inh = antivirals against arbovirus infection, primary screen, cell-based, full library, 10K replicate subset; arbovirus infection cell-based antiviral screen; inhibition, % at 10 µM; 200,000 compounds, 0.37% hits;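 active means inhibition from about 30%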;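 further: bluetongue infection of BSR cells; cell survival read as ATP light after 72 h; 0% = infected wells without compound and 100% = uninfected wells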
Mtb betalactam = beta-lactam sensitization of Mtb H37Rv, H37Rv; M. tuberculosis H37Rv growth with meropenem, percent inhibition; hits of this screen are not shown here; inhibition, % at 25 µM; 330,000 compounds, 0.27% hits; AID 434955, 2010;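 active means about 74% or more and at least 40 points above the plate without the antibiotic, then above 30% in a dose series; inconclusive means first-round hits that could not be retested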;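 further: growth measured after seven days incubation then overnight dye step; 0% = bacteria only wells and 100% = bacteria with antibiotic; twin plates without the antibiotic show which effects depend on it; some results filed as inactive read as strong as hits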
YopH inh = YopH tyrosine phosphatase inhibitors, primary screen, biochemical, fluorescence Ex485/Em525 | inhibition, %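 (about 10 µM by stock and volumes)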 | 140,000 compounds, 0.16% hits | AID 898, 2007;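 active means inhibition of 50% or more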;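 further: controls were vehicle for no effect and minimum signal wells for full effect; inactives centre near -20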
RecA splice inh = Mtb RecA intein splicing inhibitors, primary screen, biochemical, fluorescence, HTS; inhibition, %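 (about 9 µM by stock and volumes)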; Protein RecA (Mycobacterium tuberculosis (strain ATCC 25618 / H37Rv)), P9WHJ3; cell-free RecA intein splicing; 290,000 compounds, 0.75% hits; in the data active means inhibition above about 30%; inconclusive means no clear call, values can overlap the other calls;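 further: 0% = vehicle wells and 100% = reference inhibitor control wells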
Target sequence (P9WHJ3 whole entry, looked up, canonical isoform): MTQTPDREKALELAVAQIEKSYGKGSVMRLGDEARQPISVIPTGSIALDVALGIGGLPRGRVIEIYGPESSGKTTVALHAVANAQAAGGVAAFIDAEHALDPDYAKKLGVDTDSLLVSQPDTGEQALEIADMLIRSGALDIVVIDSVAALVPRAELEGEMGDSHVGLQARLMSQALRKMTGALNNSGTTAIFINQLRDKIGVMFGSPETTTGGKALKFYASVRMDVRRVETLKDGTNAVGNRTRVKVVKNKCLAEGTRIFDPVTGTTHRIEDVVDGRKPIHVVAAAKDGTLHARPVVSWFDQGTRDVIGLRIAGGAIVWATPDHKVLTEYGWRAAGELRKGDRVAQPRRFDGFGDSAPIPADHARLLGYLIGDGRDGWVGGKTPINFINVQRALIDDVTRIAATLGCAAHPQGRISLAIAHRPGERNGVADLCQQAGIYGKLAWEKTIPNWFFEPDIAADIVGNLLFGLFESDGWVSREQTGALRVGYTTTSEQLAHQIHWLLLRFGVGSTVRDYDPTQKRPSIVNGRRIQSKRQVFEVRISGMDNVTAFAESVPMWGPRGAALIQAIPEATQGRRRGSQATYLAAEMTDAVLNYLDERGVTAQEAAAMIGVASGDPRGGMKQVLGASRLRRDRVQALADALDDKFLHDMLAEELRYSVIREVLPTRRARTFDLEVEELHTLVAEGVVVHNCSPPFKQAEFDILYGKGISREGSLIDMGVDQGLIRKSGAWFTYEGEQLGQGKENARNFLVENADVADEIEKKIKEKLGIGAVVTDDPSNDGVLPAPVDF
Arbovirus inh repeat = also measured in Arbovirus inh; calls as there; inhibition, %; measured here: 10K subset replicate screen; many hits read low in the repeat;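 first of two repeat runs on a subset; 0% = infected and 100% = uninfected wells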
The depositor's hits bear a star; ? = inconclusive; . = not tested or not shown.

SMILES	Mtb growth	Arbovirus inh	Mtb betalactam	YopH inh	RecA splice inh	others
Cn1cc(/C=C(\C#N)C(=O)Nc2ncc(Cc3cccc(Cl)c3)s2)c2ccccc21	4%	-27	12	-26	-5.5
O=C(O)c1ccc(CNCc2cccc(Oc3ccccc3)c2)cc1	.	.	7	.	-1.3
CCn1cc(C(=O)OC)c(=O)c2ccc(C)nc21	3%	-2	1	.	.
O/N=C1/CC/C(=N\O)c2nn(-c3ccccc3)nc21	-4%	1	-2	-38	.
COc1ccc(CC(=O)N(C)CC(=O)Nc2ccccc2SC)cc1	.	.	6	.	-2.1
Cc1cccc(NC(=O)c2ccc(-c3ccccc3[N+](=O)[O-])o2)c1	?	1	91	.	2.6
CC(Oc1ccccc1F)C(=O)NNC(=O)c1ccc(F)c(S(=O)(=O)N2CCOCC2)c1 (stereo not drawn)	.	.	6	.	-4.3
Cc1cc(=O)oc2cc(OCCSc3nnc(-c4ccccc4)o3)ccc12	5%	1	10	-20	1.2
CCCc1nnc(NC(=O)CCC(=O)N2CCN(S(=O)(=O)c3ccc(C)cc3)CC2)s1	0%	.	1	.	-1.1
COc1ccc(/C=C(/NC(=O)c2ccccc2)c2nc3ccc(Cl)cc3[nH]2)cc1OC	0%	-12	6	-16	5.9
COc1ccc(C(=O)/C=C\c2ccc(NC(=O)c3cccs3)cc2)cc1	0%	-2	-17	-31	11
O=C(NCCN1C(=O)S/C(=C\c2cccs2)C1=O)[C@H](Cc1ccccc1)N1C(=O)c2ccccc2C1=O	3%	3	-1	-12	-4.4
CC1(C)C2CCC1(C)C(OC(=O)c1ccccc1C(=O)O)C2 (stereo not drawn)	-14%	.	-2	.	0.5
COc1ccc(C(=O)Nc2cccc(C(=O)N3CCCCC3)c2)cc1	.	.	-10	.	4.9
Cc1ccc(CN2CCN(Cc3c(C)nn(-c4ccc(F)cc4)c3C)CC2CCO)o1 (stereo not drawn)	-2%	-5	-6	.	-1.1
C=CCOC(=O)C1=C(C)OC(N)=C(C#N)C1c1ccc(OC)c(CSc2ccccn2)c1 (stereo not drawn)	1%	-3	1	-30	5.1
CCCNC(=O)c1ccc(COc2ccc(CCC)cc2OC)o1	.	.	1	.	0.9
CN(C)c1ccc(/C=C2\C(=O)NC(=O)N(Cc3ccc(F)cc3)C2=O)cc1	.	.	5	.	-2.2
CCc1nn(CCCC(=O)NCc2ccc(OC(C)C)cc2)c(=O)c2cc3occc3n12	.	.	-1	.	5.8
COc1ccccc1CC(=O)Nc1ccc(S(=O)(=O)N2CCN(C)CC2)cc1	.	.	-8	.	1.7
COc1ccc2ncc(OC(C)=O)cc2c1	>100µM*	-4	-14	-16	0.3
Cc1ccc(C(=O)c2coc3c2C(=O)C(=O)c2ccccc2-3)cc1	-2%	-32	44	-14	.
Cc1cc(C(=O)NC(=S)Nc2cccc(NC(=O)C(C)C)c2)ccc1[N+](=O)[O-]	7%	-1	-4	-14	0.7
COCC(C)N=CC1=C(O)CC(C)(C)CC1=O (stereo not drawn)	-3%	0	-1	-44	-0.1
Cc1ccc(C)c(-n2nnnc2SCC(=O)NNC(=O)c2ccco2)c1	2%	-3	2	.	8.0
COc1ccc(N(C(=O)COc2ccc(C)cc2)S(=O)(=O)c2ccc(C)cc2)cc1	9%	0	6	-26	27
CCCN1CCN(C(=O)C2CCN(c3ncnc4c3nc3n4CCCCC3)CC2)CC1	.	.	0	.	-0.1
O=c1cc(CN2CCN(Cc3ccccc3)CC2)c2cc(Cl)ccc2o1	-11%	12	.	-28	1.0
O=[N+]([O-])c1cccc(S(=O)(=O)c2ccc(NCCOCCO)c([N+](=O)[O-])c2)c1	.	.	1	.	-3.8
Cc1ccc(NC(=O)CN2C(=O)N/C(=C\c3cccnc3)C2=O)cc1	5%	8	4	.	0.4
COc1ccc(N(CC(=O)Nc2ccccc2F)S(=O)(=O)c2ccc(C)c([N+](=O)[O-])c2)cc1	6%	1	-4	.	2.6
COc1ccccc1CNC(=S)Nc1ccc2nc(N3CCN(C)CC3)cc(C)c2c1	?	12	89	.	-0.4
C=CCn1c(=O)c(C(=O)Nc2ccc(C)cn2)c(O)c2ccccc21	.	.	92	.	-2.0
CCC1=C(OC(=O)N(CC)CC)N2C(=O)OC(=NCCc3c[nH]c4ccccc34)[C@]2(Cc2ccccc2)[C@H]2C1=CC[C@H]1C(=O)N(CC(=O)OC)C(=O)[C@H]12	13%	.	75	.	4.0
CCCCNC(=O)Cn1cnc2sc(C)c(S(=O)(=O)N3CCN(c4ncccn4)CC3)c2c1=O	2%	6	0	.	.
CNC(=O)c1c2c(nc3ccc(Br)cc13)CCCC2	17%	-5	0	.	2.4
O=C(c1ccccc1)N1CCn2c1nc1ccccc12	-2%	-3	-2	.	0.0
O=C(COC(=O)c1cccs1)Nc1ccccc1C(F)(F)F	-2%	-1	-10	.	-1.5
CC(C)Nc1nc(-c2cccnc2)nc(-c2ccccc2)c1C#N	.	.	4	.	1.2
COc1ccc(/C=N/NC(=O)c2cccc(NC(=O)c3ccccc3Cl)c2)c(OC)c1	2%	-8	3	.	1.5
Cc1ccc(C(=O)C2=C(O)C(=O)N(c3ncccn3)C2c2ccc(F)cc2)o1 (stereo not drawn)	2%	.	0	.	-2.7
COc1ccc(-c2c(NC(=O)CC(C)C)n(C)c3ccccc3c2=O)cc1OC	.	.	0	.	-1.6
CCN(C(=O)c1ccc2c(=O)n3c(nc2c1)CCCCC3)c1cc(OC)ccc1OC	.	.	6	.	0.6
CCOC(=O)c1c(NC(=O)C2c3ccccc3Oc3ccccc32)sc(C(C)=O)c1C	-6%	-1	-4	-28	1.8
COCCN(C(=O)COC(=O)Cc1coc2cc(C)ccc12)c1c(N)n(Cc2ccccc2)c(=O)[nH]c1=O	.	.	3	.	1.9
Cc1ccc(NC(=O)Nc2ccccc2)nc1	.	.	-14	.	5.6
COC(=O)c1ccccc1NC(=O)CSc1nc2ncccc2[nH]1	-6%	1	-17	.	1.9
Cc1c(Br)c([N+](=O)[O-])nn1CCCC(=O)NC(C)c1ccccc1 (stereo not drawn)	-1%	13	-5	.	3.8
COc1ccc(/C=C/C(=O)N2CCCc3ccccc32)cc1	16%	-9	50	-34	6.3
O=C(Cc1ccccc1)c1c[nH]c(C(=O)NC2CCCC2)c1	0%	4	-10	.	.

Retrieved by structure from the entries so far:
SMILES	Mtb growth	Arbovirus inh	Mtb betalactam	YopH inh	RecA splice inh	others
COc1ccc(-c2c(NC(=O)CC(C)C)n(C)c3ccccc3c2=O)cc1OC	.	.	0	.	-1.6
CCN(C(=O)c1ccc2c(=O)n3c(nc2c1)CCCCC3)c1cc(OC)ccc1OC	.	.	6	.	0.6

(cont.)
SMILES	Mtb growth	Arbovirus inh	Mtb betalactam	YopH inh	RecA splice inh	others
COc1cccc2cc(-c3csc(NC(=O)CCC(=O)NCCCN4CCC(C)CC4)n3)c(=O)oc12	-3%	.	-13	.	0.6
Cc1ccc(-n2[nH]c(C)c(C=Nc3ccc(S(=O)(=O)N4CCOCC4)cc3)c2=O)c(C)c1	10%	4	3	1	1.5
Nc1nc(SCC(=O)N2CCOCC2)n[nH]1	1%	3	-1	.	-0.7
COc1ccc(C2CC(=O)N3CN(c4ccc(C)c(Cl)c4)CSC3=C2C#N)cc1OC (stereo not drawn)	>100µM*	-6	-4	-36	7.6	Arbovirus inh repeat=-4
Cn1ccnc1SCC(=O)NC1(C#N)CCCCC1	.	.	-2	.	-1.6
CCCC(=O)N(c1ccc(C(=O)O)cc1)c1nc(-c2ccccc2)c(C)s1	4%	-1	4	.	-2.3
CCCCCc1c(C)nc(N2CCN(Cc3ccc4c(c3)OCO4)CC2)[nH]c1=O	.	.	?	.	3.3
CCc1nn(CC(=O)NC2CCN(Cc3ccccc3)CC2)c(=O)c2cc3cc(F)ccc3n12	.	.	-2	.	-0.4
CCCC(=O)Nc1c2c(nn1-c1ccc(OC)cc1)CS(=O)C2 (stereo not drawn)	.	9	-2	-25	5.2
CC1(C)CC(NC(=O)C2CCN(S(=O)(=O)c3ccc(F)cc3)CC2)CC(C)(C)N1	.	.	-5	.	-0.3
Cc1ccc2cc(CN(C)S(C)(=O)=O)c(=O)[nH]c2c1	-1%	7	-8	.	-6.5
S=C(Nc1ccccc1)N1CCCCC1	-4%	6	3	-45	-0.4
NC(=O)c1oc2ccccc2c1NC(=O)C1CC(=O)N(c2ccccc2)C1 (stereo not drawn)	.	.	-3	.	2.0
O=C(O)COc1ccccc1/C=N/NC(=O)c1cc(-c2ccccc2)nc2ccccc12	-9%	.	-2	.	-2.0
CC(c1ccon1)N(C)C(=O)c1ccc(OC2CCN(C(=O)C3CC3)CC2)cc1 (stereo not drawn)	3%	1	0	.	-0.1
CCN(CC)Cc1c(C(=O)N/N=C/c2c(Cl)cccc2Cl)nnn1-c1nonc1N	.	.	-3	.	0.9
CCc1nnc(NC(=O)CCC2CCCCC2)s1	.	.	3	.	-0.9
COc1cc(CCC(=O)N2CCN(c3ncccn3)CC2)cc(OC)c1OC	2%	4	-5	.	-5.2
Cc1ccc(C)c(COC(=O)CCN=C2NS(=O)(=O)c3ccccc32)c1	.	.	-15	.	0.0
O=C(Nc1ccccc1C(=O)Nc1cccnc1)c1ccccc1	6%	1	-2	.	-0.8
O=C(CN1CCOCC1)N/N=C/c1cccc2ccccc12	.	.	-5	.	-1.9
O=C(Nc1ccccn1)c1nc(-c2ccccc2)n(-c2ccccc2)n1	13%	8	8	-25	-4.7
N/C(=N\OCc1ccccc1)c1nonc1N	5%	3	-8	.	0.2
CCc1ccccc1N1C(=O)C(Cl)=C(N2CCOCC2)C1=O	.	.	3	.	67*
CCN(CC)S(=O)(=O)c1cccc(C(=O)NCCc2ccccc2)c1	0%	.	-6	0	8.8
CC(=O)N1N=C(c2ccc(C)cc2)CC1c1ccco1 (stereo not drawn)	6%	-7	3	.	-1.9
Cc1ccc2nc(SCC(=O)c3ccc(Cl)cc3)nc(=O)n2c1	.	.	-3	.	-1.5
CCC(C)NC(=O)c1[nH]c(C)c(C(=O)OC)c1C (stereo not drawn)	2%	1	2	-24	-5.8
Cc1ccc(C(=O)CSc2nc3ccccc3c(=O)n2-c2ccccc2)s1	-7%	-3	-1	-30	-6.5
O=C(NCCCN1CCCC1=O)C(=O)NCC1OCCCN1S(=O)(=O)c1cc(F)ccc1F (stereo not drawn)	.	.	-8	.	2.3
O=C1C(C2=C(O)c3ccccc3C2=O)=Nc2ccccc21	1%	-17	-12	10	47*
COC(=O)CNC(=O)c1cc(-c2ccncc2)nc2c(C)c(Cl)ccc12	-2%	7	20	.	-1.2
CCOc1ccc(CCNC(=O)C(C)n2nc(C)c3c(C)n(-c4ccccc4)nc3c2=O)cc1 (stereo not drawn)	.	.	-8	.	3.4
O=C1OC(c2ccc(F)cc2)=C/C1=C\c1ccc([N+](=O)[O-])o1	?	-34	100	.	3.0
Cc1cc(C)cc(OCC(=O)Nc2ccncc2)c1	.	.	5	.	-5.6
O=C(O)C/C(=C\c1ccc(Cl)cc1)c1nc2ccccc2o1	2%	3	1	.	-1.0
c1ccc(Nc2ncnc3sccc23)cc1	.	.	-3	.	2.5

Of the compounds above, ten contain a Cl atom.
SMILES	Mtb growth	Arbovirus inh	Mtb betalactam	YopH inh	RecA splice inh	others
Cn1cc(/C=C(\C#N)C(=O)Nc2ncc(Cc3cccc(Cl)c3)s2)c2ccccc21	4%	-27	12	-26	-5.5
COc1ccc(/C=C(/NC(=O)c2ccccc2)c2nc3ccc(Cl)cc3[nH]2)cc1OC	0%	-12	6	-16	5.9
O=c1cc(CN2CCN(Cc3ccccc3)CC2)c2cc(Cl)ccc2o1	-11%	12	.	-28	1.0
COc1ccc(/C=N/NC(=O)c2cccc(NC(=O)c3ccccc3Cl)c2)c(OC)c1	2%	-8	3	.	1.5
COc1ccc(C2CC(=O)N3CN(c4ccc(C)c(Cl)c4)CSC3=C2C#N)cc1OC (stereo not drawn)	>100µM*	-6	-4	-36	7.6	Arbovirus inh repeat=-4
CCN(CC)Cc1c(C(=O)N/N=C/c2c(Cl)cccc2Cl)nnn1-c1nonc1N	.	.	-3	.	0.9
CCc1ccccc1N1C(=O)C(Cl)=C(N2CCOCC2)C1=O	.	.	3	.	67*
Cc1ccc2nc(SCC(=O)c3ccc(Cl)cc3)nc(=O)n2c1	.	.	-3	.	-1.5
COC(=O)CNC(=O)c1cc(-c2ccncc2)nc2c(C)c(Cl)ccc12	-2%	7	20	.	-1.2
O=C(O)C/C(=C\c1ccc(Cl)cc1)c1nc2ccccc2o1	2%	3	1	.	-1.0

Some of the compounds tested. The share of hits here may be higher or lower than overall.
